Menin-MLL FL inh: qHTS Assay for Inhibitors Targeting the Menin-MLL Interaction in MLL Related Leukemias: Competition With Fluorescein Labeled MLL-derived Peptide. Fluorescence polarization, fluorescein-MLL peptide displacement from menin. FP activity change, % at 61.4 µM. 290,000 tested, under 10 active. AID 1766, 2009; inconclusive = falling polarisation curve, or a change in total fluorescence; inactive = total fluorescence flat and polarisation flat or rising; no compound was filed as active; the % refers to the polarisation; negative = inhibition;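 also: % of control where 0% means no effect; inhibitors lower the polarisation; unlabelled MLL peptide was the positive control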
Sfp inh: qHTS Assay for Inhibitors of Bacillus subtilis Sfp phosphopantetheinyl transferase (PPTase). 4'-phosphopantetheinyl transferase ffp (Bacillus subtilis), Q9F4F7. Potency, µM, without a hit: max response, negative = inhibition, actives largely listed as inhibitors. 310,000 compounds, 3.5% hits. Biochemical Sfp PPTase activity, qHTS; active = well fitted inhibition curve with a large enough effect; inconclusive = small, poorly fitted or top-dose-only effect, or another doubt; inactive = no such curve, though single readings can be large or run the other way;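 also: the enzyme is Sfp with the accession as filed and its product quenches rhodamine fluorescence; potency is read from the fitted curve at half-maximal effect; 0% = enzyme reaction without inhibitor and -100% = no enzyme wells; top concentration of the series not given in the record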
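Reaction rates are the 30-min fluorescence difference (ex 525, em 598 nm) in wells containing 15 nM Sfp, 5 uM rhodamine-CoA and 12.5 uM BHQ-2-YbbR at pH 7.6 with 10 mM MgCl2.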
TRPV1 potentiator: HTS Assay for Compounds that Act as Potentiators of the Vanilloid Receptor 1. TRPV1-expressing cells, Fluo-8 calcium influx, capsaicin EC20 potentiation; host cell line not named in the record; control for the full effect not named in the record. potentiation, % at 8.33 µM. 320,000 compounds, 0.02% hits; active means potentiation above 80%; inconclusive means 30% to 80%; inactive means below 30%; also: 0% is about no effect
Target sequence (Q8NER1 whole entry, looked up): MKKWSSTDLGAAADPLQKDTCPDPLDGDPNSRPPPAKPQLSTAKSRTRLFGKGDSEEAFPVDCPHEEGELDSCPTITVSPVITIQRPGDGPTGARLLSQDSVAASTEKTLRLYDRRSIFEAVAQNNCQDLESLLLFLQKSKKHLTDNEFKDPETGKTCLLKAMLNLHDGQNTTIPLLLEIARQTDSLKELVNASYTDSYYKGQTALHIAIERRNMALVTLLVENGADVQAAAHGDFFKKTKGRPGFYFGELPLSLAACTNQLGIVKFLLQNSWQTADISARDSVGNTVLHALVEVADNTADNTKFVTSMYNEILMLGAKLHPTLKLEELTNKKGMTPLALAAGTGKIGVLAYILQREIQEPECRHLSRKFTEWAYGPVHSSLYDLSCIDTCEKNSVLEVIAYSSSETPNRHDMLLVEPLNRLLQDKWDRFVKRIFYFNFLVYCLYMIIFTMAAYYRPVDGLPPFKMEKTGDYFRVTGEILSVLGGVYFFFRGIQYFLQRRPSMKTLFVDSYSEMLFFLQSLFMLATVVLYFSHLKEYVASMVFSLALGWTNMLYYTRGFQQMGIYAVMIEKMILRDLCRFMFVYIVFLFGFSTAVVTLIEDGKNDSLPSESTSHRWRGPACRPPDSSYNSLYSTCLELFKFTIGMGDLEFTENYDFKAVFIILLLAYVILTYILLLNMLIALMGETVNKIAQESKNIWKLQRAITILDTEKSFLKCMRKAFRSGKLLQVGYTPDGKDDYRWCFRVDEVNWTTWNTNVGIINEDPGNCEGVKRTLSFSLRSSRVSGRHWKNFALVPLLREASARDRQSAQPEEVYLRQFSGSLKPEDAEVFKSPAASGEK
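TRPV1-expressing cells were cultured overnight at 35.5C and loaded with Fluo-8 calcium dye for 40 to 90 min at room temperature. After a 10 s baseline, compound was added and calcium influx was read kinetically for 3 min (ex 480/em 520 nm).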
PINK1 modulator: A Quantitative High throughput Screen to Identify Chemical Modulators of PINK1 Expression | PINK1 immunofluorescence, high-content cytometry, 24 h | Potency, µM (titrated, usually from 76.6 µM), without a hit: top-dose activation (PINK1 increase), actives largely listed as activators | 410,000 compounds, 0.2% hits; active = well fitted activation curve with a large enough effect; inconclusive = small, poorly fitted or top-dose-only effect; inactive = flat fitted curve, though single readings scatter; cell line not stated here;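 also: potency is read from the fitted curve at half-maximal effect; % of control where 0% means no effect; nearly all actives have a fitted effect of over 65% in size; a mitochondrial uncoupler was the plate control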
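Readout is PINK1 immunofluorescence, quantified alongside mitochondrial, cell and nuclear markers by laser-scanning microplate cytometry. Cells from a stable line were exposed to compound titrations (5 concentrations) for 24 hours, with CCCP controls.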
TRPML1 agonist: qHTS for Agonists of the Human Mucolipin Transient Receptor Potential 1 (TRPML1); Mucolipin-1 (Homo sapiens), Q9GZU1; TRPML1-expressing cells, Ca2+ dye fluorescence, FDSS; host cell line not named in the record; reference of the full effect not given here; activation, % (test concentration not listed); 410,000 compounds, 0.12% hits; in the data active = activation above about 50%; inconclusive = about 30% to 50%; inactive = below about 30%; also: 0% is about no effect; the text of the record puts the active cut at 80%
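Cells: TRPML1-DL, 1X Tet inducer, ~16 h at 37 degrees C/5% CO2. Dye: ABD Ca8 no-wash + quencher, 45-90 min RT. Read: 10 s baseline, compound add, 110 s agonist phase; 54-4 EC80 (4uM final), 110 s antagonist phase.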
TRPML1 blocker: qHTS for Inhibitors of the Human Mucolipin Transient Receptor Potential 1 (TRPML1); Mucolipin-1 (Homo sapiens), Q9GZU1; TRPML1-inducible cells, Ca2+ dye fluorescence, FDSS; active compounds read low; inhibition of EC80 agonist-evoked calcium signal; activity change, negative = inhibition, % (concentration not given with the values); 390,000 compounds, 0.02% hits; AID 624415, 2012; in the data active means activity change below about -50%; inconclusive means about -30% to -50%; inactive means above about -30%;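 also: stimulus is agonist 54-4 at its EC80 concentration; % is scaled to controls: 0 for no effect and ±100 for the full control effect; the text of the record puts the active cut at -80%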
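Calcium fluorescence in TRPML1-DL cells induced overnight with Tet: a 110 s read after compound pin addition, then a 110 s antagonist read after challenge with 54-4 at 4 uM final (EC80).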
ClpP mod: qHTS Assay for Activators of ClpP; Potency, µM (titrated, usually from 57.5 µM), inactives show at the highest dose activity change, negative = active; purified B. subtilis ClpP, FRET peptide cleavage, 20 min; 340,000 compounds, 1.9% hits; AID 651965, 2013; ATP-dependent Clp protease proteolytic subunit (Bacillus subtilis (strain 168)), P80244; active = well fitted falling curve with a large enough effect; inconclusive = small, poorly fitted or top-dose-only effect; inactive = no such curve, though single readings can be large or run the other way; also: potency is read from the fitted curve at half-maximal effect; the source files actives as falling curves though it sought activators and does not explain the sign; nearly all actives have a fitted effect of over 65% in size; many hits overshoot -100%
Target sequence (P80244 whole entry, looked up): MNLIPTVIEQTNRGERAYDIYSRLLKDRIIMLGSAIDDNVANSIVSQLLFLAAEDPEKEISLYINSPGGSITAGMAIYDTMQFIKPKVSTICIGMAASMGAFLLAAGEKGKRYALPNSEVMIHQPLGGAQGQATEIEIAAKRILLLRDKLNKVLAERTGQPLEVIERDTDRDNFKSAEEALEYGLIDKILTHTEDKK
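Purified B. subtilis ClpP, 10 microg/mL final in Tris/HCl pH8 with KCl, BSA, glycerol and Tween-20, cleaved an Abz/nitrotyrosine-quenched decapeptide. Fluorescence (ex 320, em 430) was read at 0 and 20 min at room temperature. Delta was normalized to 5.8 microM ADEP and DMSO/no-enzyme controls.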
* hit, by the source's call; ? = inconclusive; nt = not tested or not shown; & = joins results of further samples; [ ] = dose if it differs, or a comment.

SMILES	Menin-MLL FL inh	Sfp inh	TRPV1 potentiator	PINK1 modulator	TRPML1 agonist	TRPML1 blocker	ClpP mod
O=C(COC(=O)Cc1c(Cl)cccc1Cl)Nc1ccc(OC(F)(F)F)cc1	8.5	33%[activator]	9	13%	4.7	10	-2.0%
Nc1nnc(SCC(=O)N2CCc3ccccc32)n1-c1ccccc1	2.5	-4%	6	-0.8%	-0.6	2	2.0%
O=C(O)C1=C[C@H](c2ccc3c(c2)OCO3)C[C@H](OCCCCO)O1	nt	nt	nt	0.0%	-0.3	10	-1.9%
O=C(CN(Cc1cccs1)C(=O)CCC(=O)Nc1ccccn1)NCc1ccccc1	-3.8	18%	14	-0.9%	-0.3	2	nt
CC(=O)c1cccc(NS(=O)(=O)c2ccc3c(c2)NC(=O)CC(=O)N3)c1	nt	nt	nt	8.2%	-0.6	-15	-0.5%
CCn1c2ccccc2c2nnc(NN)nc21	4.1	-12%	3	7.1%	-0.6	11	-1.7%
CCN(CC)S(=O)(=O)c1cc(C(=O)N(C)CC(=O)Nc2ccc(Cl)cc2)ccc1Cl	-0.7	3%	-10	6.1%	-0.2	36	-2.7%
NC(=O)c1ccccc1NC(=O)CSc1cn[nH]n1	-5.5	10%	7	-0.8%	-0.2	-11	nt
O=C(c1ccc(S(=O)(=O)N2CCCCC2)cc1)N1CCCc2ccccc21	-1.3	-7%	-19	1.0%	1.6	0	2.1%
Cc1cc(C)nc(-n2nc(C)cc2NC(=O)CN2CCCC2)n1	1.8	9%	-6	0.3%	0.4	-1	-0.6%
CCN(CC)C(=O)c1[nH]cnc1C(=O)N[C@@H](C)C(=O)OC(C)(C)C	-2.8	6%	-9	2.4%	-0.4	-4	1.2%
Cc1ccc(NCCc2ccc(C)nc2)cc1	-0.8	11%	-13	0.4%	1.2	-2	0.3%
O=C(Oc1ccccc1)c1ccc(NC(=O)c2ccco2)cc1	3.7	-36%	-4	6.2%	1.8	24	-5.0%
Cc1ccccc1C(=O)Nc1cccc(C(=O)OCc2cc(=O)n3c4c(sc3n2)CCCC4)c1	nt	nt	nt	1.1%	0.9	8	?
O=C(CSc1nnnn1C1CCCCC1)N1c2ccccc2Sc2ccccc21	-0.1	4%	7	0.7%	1.6	-2	1.5%
CC(C)c1ccc(NC(=O)CSc2nnc(-c3ccccc3)n2C)cc1	nt	nt	nt	1.9%	1.3	nt	-0.4%
O=C(c1noc2c1CCCC2)N1CCN(Cc2ccccc2)CC1	0.9	21%	-17	-4.2%[38.3 µM]	-0.2	0	-1.5%
COc1ccc(C2/C=C\CN(CC3CC3)C(Cc3ccccc3)C(=O)N2Cc2ccc(F)cc2)cc1 (centres undefined)	1.5	3%	nt	nt	1.9	75	nt
COCCCNC(=S)N1CCN(C(c2ccccc2)c2ccccc2)CC1	0.3	7%	-4	-1.4%	2.9	-1	1.8%
C[C@@H]1CN([C@@H](C)CO)C(=O)CCCn2nncc2CO[C@H]1CN(C)C	nt	nt	nt	1.3%	-0.5	1	0.8%
Cn1cnc(S(=O)(=O)N2CCCC(C(=O)NCc3ccccc3Cl)C2)c1 (centres undefined)	nt	nt	nt	-0.6%	1.9	17	1.8%
Cc1ccc(/C=C/S(=O)(=O)N2CCC(C(=O)O)CC2)cc1	0.4	-12%	-2	-1.2%	3.1	3	-3.4%
CCCCn1c(-c2nonc2N)nc2ccccc21	1.0	15%	3	0.7%	1.4	23	-3.3%
O=C(C=Cc1ccc2c(c1)OCO2)OCC=Cc1ccc2c(c1)OCO2	nt	nt	nt	9.9%	0.6	3	nt
Cc1ccc(C(=O)N(c2c(C)n(C)n(-c3ccccc3)c2=O)C(C)C)cc1	-8.5	11%	3	-0.5%[38.3 µM]	0.9	24	0.2%
Fc1ccc(N2CCN(Cc3c[nH]c4ccccc34)CC2)cc1	-0.1	-2%	-7	nt	nt	nt	nt
CCOC(=O)C1=CCN(S(=O)(=O)c2ccccc2C)C1c1ccc(C)cc1 (centres undefined)	nt	nt	nt	0.6%	3.6	43	2.5%
CCCC#Cc1ccc2c(c1)COc1c3ccccc3nn1-2	nt	nt	-2	0.3%	0.9	3	-1.7%
COCCn1c(SCC(=O)NCCCN2CCCC2=O)nc2ccccc2c1=O	nt	nt	nt	-0.6%	0.3	-8	0.8%
Cc1ccc(NC(=O)/C(=C\c2ccccc2)NC(=O)/C=C/c2ccccc2)cc1	7.9	15%	2	-0.6%	0.5	1	0.3%

Four entries picked at random from those above:
SMILES	Menin-MLL FL inh	Sfp inh	TRPV1 potentiator	PINK1 modulator	TRPML1 agonist	TRPML1 blocker	ClpP mod
COCCCNC(=S)N1CCN(C(c2ccccc2)c2ccccc2)CC1	0.3	7%	-4	-1.4%	2.9	-1	1.8%
O=C(Oc1ccccc1)c1ccc(NC(=O)c2ccco2)cc1	3.7	-36%	-4	6.2%	1.8	24	-5.0%
O=C(c1ccc(S(=O)(=O)N2CCCCC2)cc1)N1CCCc2ccccc21	-1.3	-7%	-19	1.0%	1.6	0	2.1%
COc1ccc(C2/C=C\CN(CC3CC3)C(Cc3ccccc3)C(=O)N2Cc2ccc(F)cc2)cc1 (centres undefined)	1.5	3%	nt	nt	1.9	75	nt

(list continues)
SMILES	Menin-MLL FL inh	Sfp inh	TRPV1 potentiator	PINK1 modulator	TRPML1 agonist	TRPML1 blocker	ClpP mod
COc1ccc(CN(Cc2cc3cccc(C)c3[nH]c2=O)C(=O)N(C)C)cc1	1.1	14%	-3	-3.0%	0.4	-8	-5.5%
CCOC(=O)c1cc(C(=O)OCC)cc(-n2c(C)cc(C(=O)CN3CCOCC3)c2C)c1	4.3	-7%	-6	-0.9%	-0.5	-13	-7.6%
Cc1cc(NC(=O)C23CC4CC(C2)CC(n2cnc([N+](=O)[O-])n2)(C4)C3)no1	-0.6	-5%	?	-0.2%	0.3	-16	1.9%
Cc1ccc(Cl)cc1N1CCN(C(=S)NCc2ccco2)CC1	-2.4	6%	-5	24%	3.2	12	nt
O=C(OCC(=O)C12CC3CC(CC(C3)C1)C2)c1ccc(CO)cc1	nt	nt	-20	2.9%	1.2	26	1.0%
O=C(Cc1ccccc1)N/N=C\c1ccc(Br)o1	5.6	6%	-23	5.4%[38.3 µM]	-1.0	3	0.0%
C=C1CCN(C(CC(C)C)C(=O)OC)S(=O)(=O)c2ccccc21 (centres undefined)	-7.9&-1.1	-8%&9%	-6	1.6%	0.3&1.0	14&-24	2.8%
O=S(=O)(Nc1ncccn1)c1ccc(NS(=O)(=O)c2cccc(Cl)c2Cl)cc1	0.7	15%	-2	1.3%	0.0	-20	nt
COc1ccc(CNC(=O)CC[C@H]2O[C@@H](n3ccc(=O)[nH]c3=O)[C@H](O)[C@@H]2O)cc1	nt	nt	nt	8.9%	-0.4	-12	0.1%
O=C(COc1ccc(Cl)cc1Cl)Nc1ccc(-c2ccc(N3CCOCC3)nn2)cc1	nt	nt	10	3.8%	-0.1	-6	nt
Cc1ccc(C2CC(=O)c3cnc(N4CCN(c5ccccc5)CC4)nc3C2)cc1 (centres undefined)	-1.3	4%	3	0.8%	-1.5	9	0.4%
Cc1cc2nc3c(c(C(F)(F)F)n2n1)CCCC3	-0.7	20%	13	7.1%	-1.6	-5	0.2%
O=C(/C=C/c1c(Cl)cccc1Cl)NCCCn1ccnc1	nt	nt	nt	-0.5%	2.7	-4	nt
Cc1ccc(S(=O)(=O)N2CCN(C(=O)C(C)Cn3nc(C)c(C)c3C)CC2)cc1C (centres undefined)	-1.6	23%	25	-1.5%	0.3	-6	nt
COC(=O)Cn1c2ccc(C)cc2c2nc3ccccc3nc21	-1.3	9%	15	1.1%	1.1	1	-3.2%
COc1ccc(OC)c(N(CC(=O)Nc2cccnc2)S(=O)(=O)c2ccc(OC)c(OC)c2)c1	3.4	-2%	20	3.5%	-0.8	-7	-0.3%
Cc1nc2c(-c3ccc(F)cc3)c(C)nn2c(C)c1CCC(=O)Nc1ccc(F)cc1F	2.9	5%	4	8.4%	-0.2	3	0.3%
O=C(NCCCN1CCOCC1)c1cc2c(=O)[nH]c3ccccc3c2s1	-3.4	11%	-22	-1.8%	0.7	-7	-9.8%
Cc1ccc(-c2nc(C)sc2CC(=O)Nc2cccc(C)c2C)cc1	2.0	13%	-18	3.7%	4.3	-16	3.3%
CC(=O)Nc1ccccc1NC(=O)c1cccc2ccccc12	7.3	18%	-4	-0.8%	0.1	-23	-5.7%
Cc1ccc(C(=O)Nc2cccc(C(=O)N/N=C/c3ccccc3F)c2)cc1	-6.3	19%	4	0.4%	3.6	5	nt
CN(C(=O)c1cc([N+](=O)[O-])ccc1N1CCCC1)C1CCCCC1	nt	11%	-11	-0.2%	-0.5	1	1.2%
CCCN(c1ccc(C(C)C)cc1)S(=O)(=O)c1ccc2c(c1)n(C)c(=O)c(=O)n2C	nt	nt	nt	1.5%	-0.6	3	3.6%
CN(Cc1ccccc1)C(=S)NC(=O)c1ccc(-c2ccccc2)cc1	1.9	14%	11	10%	0.5	-8	-0.9%
Cc1c(C(=O)NN2CCN(C)CC2)cccc1[N+](=O)[O-]	-0.5	18%	nt	2.4%[38.3 µM]	1.1	-12	0.1%
O=C(CCn1nc(-c2ccc(Cl)cc2)ccc1=O)NCc1ccccn1	0.7	-7%	7	-0.8%	-1.3	-4	-12%
CN(C)c1ccc(NC(=O)CN2CCN(S(=O)(=O)c3cc(Cl)ccc3Cl)CC2)cc1	0.5	-2%	-3	-0.4%	1.5	34	1.7%
CC(=O)c1c(C)[nH]c(C(=O)NCCc2c[nH]c3ccccc23)c1C	-6.6	9%	30	9.5%	0.7	-22	nt
CCOC(=O)c1cc(S(=O)(=O)N2CCN(c3ccc(C)cc3C)CC2)[nH]n1	nt	nt	nt	2.8%	0.4	15	-0.8%

Compound activity as filed in PubChem.
